Compound activity: PubChem BioAssay, ICCB-Longwood Screening Facility, Harvard Medical School
Sa growth 42C – S. aureus growth inhibition at 42 and 30 °C, primary screen, LtaS inhibitor project, RN4220, two temperatures. OD600, 20 h, 42 °C; stronger effect = lower value. AID 720641, 2013. 170,000 compounds, 0.53% hits. relative growth, % (test concentration not listed);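 active = growth at 42 °C up to 50% and 20 or more points under that at 30 °C, or under 10% at both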;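 also: 300 nL library stock went into each well; scaled to the means of positive and negative controls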
GIV-Gai inh – inhibitors of GIV peptide binding to Galpha-i3, primary screen, biochemical, fluorescence polarization, FITC-GIV GBA peptide, rat Galphai3. Guanine nucleotide-binding protein G(i) subunit alpha-3 (Rattus norvegicus), P08753. 90 min; stronger effect = lower value; scaled: aluminum fluoride 0%, vehicle 100%. percent of control (FP), % (concentration not given with the values). 210,000 compounds, 0.42% hits. AID 1224905, 2016;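 active = replicate mean at 85% of control or lower, very high polarization wells dropped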;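 also: wells of about 15 µL received 100 nL stock; the first replicate is given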
Target sequence (P08753 whole entry, looked up): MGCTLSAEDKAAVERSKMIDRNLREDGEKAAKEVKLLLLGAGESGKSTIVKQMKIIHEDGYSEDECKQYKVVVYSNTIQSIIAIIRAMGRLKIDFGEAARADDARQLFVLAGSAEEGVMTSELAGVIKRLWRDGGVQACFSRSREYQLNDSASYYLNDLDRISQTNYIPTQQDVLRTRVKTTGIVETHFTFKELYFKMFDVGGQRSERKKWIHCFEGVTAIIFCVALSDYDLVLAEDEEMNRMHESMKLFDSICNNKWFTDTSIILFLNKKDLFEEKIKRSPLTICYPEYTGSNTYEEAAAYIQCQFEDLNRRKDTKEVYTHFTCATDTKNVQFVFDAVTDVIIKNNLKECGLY
HCMV UL50-53 inh – inhibitors of HCMV UL50-UL53 interaction, biochemical, HTRF | HCMV UL50-UL53 nuclear egress complex (human cytomegalovirus) | normalized percent inhibition | inhibition, % (test concentration not listed) | 190,000 compounds, 0.15% hits;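 active = both replicates at 50% or more, plus weaker picks with an unusually low signal ratio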;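 also: stock transfer was 100 nL into about 20 µL; 0% = negative control wells and 100% = wells with untagged competitor protein; inactives centre near -12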
Sa growth 42C second temp – second read-out of Sa growth 42C, no call of its own (marks repeat the call); relative growth, %; measured here: growth at 30 °C;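 optical density after 20 h as mean of two plates; 100% = untreated growth and lower means inhibition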
The depositor's hits bear a star; · = not tested or not shown; & = joins results of further samples.

structure	Sa growth 42C	Sa growth 42C second temp	GIV-Gai inh	HCMV UL50-53 inh
Cc1oc2c(cc(NS(=O)(=O)c3ccc(Cl)cc3)c3ccccc32)c1C(=O)OCc1ccccc1	98	87	110	-41
O=C(c1cncc(Br)c1)N1CCSc2ccccc21	113	93	·	-22
CCOC(=O)c1cc2n(c1N)-c1ccccc1C2=O	86	72	91	-8
NC(N)=N/N=C\c1c(Cl)cccc1Cl	79	69	·	-16
COc1ccccc1N1CCN(c2ncnc3c2nnn3C)CC1	93	99	98&102	·
Cc1nc(-n2cccc2)sc1C(=O)NC1CCCC1	86	81	103	2
Cc1nc(-n2[nH]c(C)c(CCC(C)C)c2=O)sc1C(=O)Nc1ccc(Cl)cc1	·	·	105	-16
O=S(=O)(CCSc1ccc(Cl)cc1)c1ccccc1	101	91	105	-3
COc1ccc(NC(=O)c2noc3c2CSc2ccccc2-3)cc1Cl	100	102	100	4
COCCC(=O)NC12CC3CC(CC(C3)C1)C2	107	92	101	2
O=C(CCCn1nnc2cc(S(=O)(=O)N3CCCC3)ccc21)N1CCN(c2ccccc2)CC1	·	·	103	2
O=C(CCn1cnc2ccccc2c1=O)Nc1ccc(Br)cc1F	·	·	102	-36
COc1ccc(C(=O)NCC#N)cc1	123	83	108	·
Cc1cccc(Nc2nnc(C)c(=O)[nH]2)c1C	·	·	98	-24
O=C(CC(c1ccc(F)cc1)N1Cc2ccccc2C1=O)N1CCCCC1 (stereo not drawn)	84	86	97	-33
COc1ccc2c(c1)c(C(=O)CN(C)C)c(C)n2C	92	84	97&97	-25&-6
CCc1ccc(CNC(=O)Cc2ccc(NC(=O)N3CCSc4ncccc43)cc2)cc1	133	90	105	·
FC(F)(F)c1ccc(N=Cc2cccs2)cc1	103	82	·	-28
O=c1cc(CSc2nnc(COc3ccccc3Cl)n2C2CC2)nc2sccn12	117	101	·	-38
CCOc1ccc(C(O)c2nc3ccccc3n2C)cc1 (stereo not drawn)	118	89	·	-29
O=C(NCCc1nc2ccccc2n1Cc1c(F)cccc1Cl)c1ccco1	88	82	96	10
CCOc1ccc(C(=O)CSc2nnc(-c3ccco3)c(-c3ccco3)n2)cc1NC(=O)CC	74	43	103	-29
COC1(c2ccc(Cl)cc2)OC(=O)c2ccccc21 (stereo not drawn)	114	92	101	·
Cc1nc2nc(Cc3ccccc3)[nH]n2c(=O)c1Cc1ccccc1	86	70	98	·
CCOC(=O)c1c(C)oc2ncnc(NCCCN3CCN(c4cc(C)ccc4C)CC3)c12	89	95	102	·
O=C(CSc1ncnc2c1cnn2-c1ccc(F)cc1)Nc1ccc2c(c1)OCO2	93	91	109	-42
CC1(C)CC(=O)C2=C(C1)NC(=O)CC2C(=O)Nc1ccc(F)c(Cl)c1 (stereo not drawn)	90	75	98	-30
Cc1ccc(CCNC(=O)c2ccc3c(Cl)c4c(nc3c2)CCCC4)cc1	99	91	102	-15
CSc1nc(C(N)=O)c(N)s1	110	107	106	9
CCc1ccc(C(=O)Cn2c(NCCO)nc3ccccc32)cc1	100	88	100	·
CCOC(=O)N1CCC(=NNC(=O)Cn2nnc3ccccc32)CC1	92	98	·	-11
COc1ccc(CNC(=O)CCC(=O)N2CC3CCCN3c3ccccc32)cc1 (stereo not drawn)	91	87	100	·
O=c1cc(N2CCN(c3ccc(F)cc3)CC2)[nH]c(=O)n1-c1ccc(Br)cc1	120	100	109	·
Nc1ccc(C(=O)OCCCc2nc3cc4ccccc4cc3[nH]2)cc1	79	35	104	·
COc1ccc(OC)c(/C=C2\CC(c3ccccc3)C/C(=C\c3cc(OC)ccc3OC)C2=O)c1 (stereo not drawn)	114	89	104	·
C/C=C/C(=O)N1c2ccccc2C(C)=CC1(C)C	108	101	100	-15
S=c1[nH]nc(C2COc3ccccc3O2)n1-c1ccccc1 (stereo not drawn)	112	96	93	-13
C=CCNc1nc(N2CCCC2)nc2ccccc12	83	87	112	-3
Nc1ncnc2nc(SCC(=O)O)[nH]c12	98	90	107	-17
O=C(c1ccn(C(=O)c2ccccc2)n1)N1CCOCC1	108	98	100	·
O=C(NCC1CCCO1)c1cc(=O)nc2sc(N3CCCC3)nn12 (stereo not drawn)	·	·	96	-23
CN(C)c1ccc(C(CNC(=O)c2ccc(F)c(F)c2)N2CCc3ccccc3C2)cc1 (stereo not drawn)	·	·	100	-28
O=C(CSc1ccc2nc(-c3ccccc3)cn2n1)Nc1ccccc1	116	80	101	·
CCOC(=O)C1=C(C)NC(=O)NC1c1c(Cl)nc2c(C)cccn2c1=O (stereo not drawn)	107	88	·	-8
COc1ccc(NS(=O)(=O)c2ccc(N3C(=O)CCS3(=O)=O)cc2)c(OC)c1	·	·	107	-3
CCOC(=O)c1cnc(SCc2ccc(Cl)cc2)nc1N	94	89	99	-10
COc1cc(/C=C/c2nc(C#N)c(N3CCCCCC3)o2)cc(OC)c1OC	104	87	103	8
O=C(NCc1ccccc1)NC1=NCCS1	91	74	102	-18
CC(C)(CO)C12CC3CC(CC(C3)C1)C2	116	76	105	·
Cc1ccc(-c2cc(C(=O)Oc3ccc(C#N)cc3)no2)cc1	97	83	98	-22

The results go on.
structure	Sa growth 42C	Sa growth 42C second temp	GIV-Gai inh	HCMV UL50-53 inh
COc1ccc2nc(/C(N)=N/O)sc2c1	80	58	·	-47
Cc1c(CC(=O)Nc2ccccc2)sc2ccccc12	112	94	105	-4
Cc1ccc(-c2noc(CCC(=O)N(C)c3ccccc3F)n2)cc1	112	82	100	-3
CCOC(=O)C1=NN(C(=O)COc2ccccc2)C(O)(c2ccc(Cl)cc2)C1 (stereo not drawn)	·	·	103	-1
Cc1ccccc1NC(=O)Nc1ccccc1OCc1cc(=O)n2c(ncn2C(C)C)n1	·	·	97	12
CCCn1c(C)cc(C)c(C#N)c1=O	74	80	108	·
CCCCc1nnc2sc(COc3ccc(OC)cc3)nn12	·	·	104	-18
COc1ccc(S(=O)(=O)N2c3cc(F)ccc3CCC2C)cc1OC (stereo not drawn)	105	93	109	5
O=c1oc2ccccc2c(N2CCCC2)c1CN1CCCC1	98	95	109	2
Cc1ccc2nc(CCc3cccc(NC(=O)C4CCCN(S(=O)(=O)N5CCCC5)C4)c3)[nH]c2c1 (stereo not drawn)	·	·	111	-17
O=C(NCCc1ccc(Cl)cc1)c1ccc2c(c1)N(Cc1cccc(Cl)c1)C(=O)c1ccccc1S2(=O)=O	130	105	99	·
CCOc1ccc(NC(=O)CC2C(=O)N(c3cccc(C)c3)C(=O)N2Cc2cccnc2)cc1 (stereo not drawn)	107	86	112	·
COc1cc(=O)n(-c2ccc(C)cc2)nc1C(=O)Nc1ccc(C)c(C)c1	·	·	106	-28
Cc1ccc(N(C)S(=O)(=O)c2cc(-c3cc(C)no3)ccc2C)cc1	90	109	100	4
Cn1c(CNc2ccc(Br)cc2)nc2ccccc21	106	74	·	-33
Cc1nn(C)c(C)c1CNC(C)c1ccc(-n2ccnc2)cc1 (stereo not drawn)	77	89	·	-21
Cc1ccccc1CN(c1nc2nc(C)c(Cl)c(C)n2n1)S(=O)(=O)c1ccc(Cl)cc1	·	·	101	9
CC(=O)Nc1ccc(NC(=O)c2ccc3c(c2)CCN3S(=O)(=O)c2ccc(Cl)cc2)cc1	101	102	111	-4
O=C(NN1C(=O)/C(=C\C=C\c2ccco2)SC1=S)c1ccccc1O	32	23	131	38
COCCNC(=O)CN1C(=O)COc2ccc(S(=O)(=O)N3CCOCC3)cc21	106	92	106&101	6&-23
CC1CCc2c(sc3ncn4c(CCc5ccccc5)nnc4c23)C1 (stereo not drawn)	·	·	108	-12
Nc1cn(-c2ccccc2)nc1-c1ccccc1	122	100	·	8
Cc1cc(C)c2c(=O)cc(C(=O)N(Cc3ccc(C(C)(C)C)cc3)C3CCS(=O)(=O)C3)oc2c1 (stereo not drawn)	·	·	101	-28
COc1ccc(CCN2CNc3c(c(=O)n(C)c(=O)n3C)C2)cc1	·	·	106	10
CCOC(=O)c1cnn2c1NC(c1ccc(C(C)C)cc1)CC2C(F)(F)F (stereo not drawn)	75	69	102	-31
Cc1ccc(C2(C)CC(C)(C)N(C(=O)c3sc4cc([N+](=O)[O-])ccc4c3Cl)c3ccccc32)cc1 (stereo not drawn)	·	·	106	-18
CCn1nccc1NC(=O)COc1ccccc1OC	73	88	106	-18
CC(c1nnc(SCC(=O)Nc2cccnc2Cl)n1Cc1ccccc1)N(C)C (stereo not drawn)	89	84	·	-10
CC1CN=C(NC2CCCCC2)S1 (stereo not drawn)	94	97	·	20
S=C(Cc1cccnc1)N1CCOCC1	91	85	100	-15
CC(=O)c1ccc(NC(=O)CSc2nnc(N)s2)cc1	96	95	101	-8
COc1ccc(-n2c(=S)[nH]c3cc(C(=O)N4CCC(C(N)=O)CC4)ccc3c2=O)cc1	100	100	108	24
Cc1ccc(CNC(=O)CCCN2CCSc3ccccc32)cc1	·	·	101	2
COc1cc(C2CC(=O)Nc3c2c(C)nn3-c2nc(C)cc(C)n2)ccc1O (stereo not drawn)	·	·	102	-11
CCOc1ccccc1NC(=O)CSc1nnc(-c2ccco2)o1	98	85	104	-7
CCOc1ccc(N(CC)S(=O)(=O)N2CCCC(C(=O)N3CCc4ccccc43)C2)cc1 (stereo not drawn)	88	92	108	-30
COC(=O)c1c(O)ccc(-c2ccc(NC(C)=O)cc2)c1C(=O)OC	83	63	101	-6
CC(C)(C)NC(=O)CSc1nnc(-c2cccs2)o1	108	105	107	5
CCOC(=O)C1=C(C)N=c2s/c(=C\c3ccc(C(=O)OC)cc3)c(=O)n2C1c1ccc2c(c1)OCO2 (stereo not drawn)	·	·	104	-18
O=C1C=C(c2ccc(Br)cc2)OC(=O)C1C(=O)c1ccc(Br)cc1 (stereo not drawn)	87	85	103	6
Cc1ccccc1-c1noc(-c2nnn(-c3ccccc3Cl)c2C)n1	·	·	101	-17
COc1ccc(-c2nn(-c3ccccc3)cc2C2CC(c3cccs3)=NN2C(=O)CCCC(=O)O)cc1 (stereo not drawn)	·	·	103	-34
Cc1ccc(C(=O)N2CCCC(c3cccc(C(=O)NCCc4c[nH]c5ccccc45)c3)C2)cc1 (stereo not drawn)	·	·	106	-6
CC1CN(C(=O)N(C)C)CCN1C(=O)N(C)C (stereo not drawn)	98	82	96	2
Cc1cc(C(=O)COC(=O)Cc2coc3ccc4ccccc4c23)c(C)n1C1CC1	99	92	·	-16
Cc1ccc2cc(-c3noc(CCC(=O)Nc4nnc(C(C)C)s4)n3)c(=O)[nH]c2c1	·	·	103	-25
CS(=O)(=O)c1nc(-c2ccc(Br)cc2)n[nH]1	113	106	94	-12
Cc1cccc(OC(=O)Cn2c(C(F)(F)F)nc3ccccc32)c1	·	·	99	-20
CC1CN(C(=O)c2ccc(COCC(F)(F)F)o2)CC(C)O1 (stereo not drawn)	108	95	107	·
CCOc1cc(-c2ccc(OC(=O)c3ccccc3F)cc2)cc(=O)c2c(C)oc(C)c12	103	80	110	-35

Four records drawn at random from the list so far, as already listed:
structure	Sa growth 42C	Sa growth 42C second temp	GIV-Gai inh	HCMV UL50-53 inh
COc1ccccc1N1CCN(c2ncnc3c2nnn3C)CC1	93	99	98&102	·
O=c1cc(N2CCN(c3ccc(F)cc3)CC2)[nH]c(=O)n1-c1ccc(Br)cc1	120	100	109	·
Cc1ccc(N(C)S(=O)(=O)c2cc(-c3cc(C)no3)ccc2C)cc1	90	109	100	4
Cc1ccccc1NC(=O)Nc1ccccc1OCc1cc(=O)n2c(ncn2C(C)C)n1	·	·	97	12

(next part)
structure	Sa growth 42C	Sa growth 42C second temp	GIV-Gai inh	HCMV UL50-53 inh
O=C(Nc1ccc2nc(SCCOc3ccccc3)sc2c1)c1ccc(F)cc1	·	·	100	-18
CCOC(=O)c1c[nH][nH]c1=O	·	·	104	-21
CC1CCCN(S(=O)(=O)c2ccc3[nH]c(=O)cc(C(=O)NC(C)CCc4ccccc4)c3c2)C1 (stereo not drawn)	82	80	99	·
COC(=O)c1ccc(-c2sc3nc(N4CCOCC4)c4c(c3c2N)CC(C)(C)OC4)o1	·	·	106	-22
CN(C)S(=O)(=O)Nc1cnc(N2CCC(CCN3CCCCC3)CC2)c(C(=O)O)c1	·	·	106	-24
CC(=O)n1nccc1-c1nccnc1C	89	86	109	-18
CCN1CCN(c2nnc(-n3cccc3CNc3ccccc3Br)s2)CC1	·	·	102	-9
CCCCOC(=O)CSc1nnc(-c2ccc(C)cc2)o1	102	97	100	-8
COc1cccc(C2=NN(C(=O)c3cccc([N+](=O)[O-])c3)C(O)(C(F)(F)F)C2)c1 (stereo not drawn)	·	·	100	-12
